Assay outcomes as filed in PubChem BioAssay.
RE007 growth inh – less growth of the S. pombe RE007 Vpr strain; S. pombe RE007 Vpr strain, BacTiter-Glo ATP luminescence, 24 h; control for the full effect not named in the record; Potency, µM (highest dose often 92.2 µM), inactives show top-dose activity change, negative = less growth; 360,000 compounds, 0.21% hits; active = well fitted falling curve with a large enough effect; inconclusive = small, poorly fitted or top-dose-only effect; inactive = no such curve, though single readings can be large or run the other way;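 note: % is set by controls: 0 for no effect and ±100 for the full control effect; nearly all actives have a fitted effect of over 50% in size; the assay follows cell death caused by Vpr and the record does not say whether a fall means rescue or toxicity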
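Fission yeast strain RE007, carrying one chromosomally integrated HIV-1 vpr copy, was seeded at OD 0.01 in PMG+AL medium with 23 nL pinned compound. After 24 h at 30 °C and 99% humidity, viability was read by BacTiter-Glo luminescence.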
Cruzain inh Det – inhibitors of Trypanosoma cruzi cruzain with detergent; P25779; purified cruzain, Z-FR-AMC fluorescence, 0.01% Triton; Potency, µM, for the others: max response, negative = inhibition, actives largely listed as inhibitors; 200,000 compounds, 0.43% hits; AID 1478;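 note: plate controls were neutral wells for no effect and buffer without enzyme for full effect; nearly all actives have a fitted effect of over 40% in size; top concentration of the series not given in the record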
Target sequence (P25779 123-467 limits assumed): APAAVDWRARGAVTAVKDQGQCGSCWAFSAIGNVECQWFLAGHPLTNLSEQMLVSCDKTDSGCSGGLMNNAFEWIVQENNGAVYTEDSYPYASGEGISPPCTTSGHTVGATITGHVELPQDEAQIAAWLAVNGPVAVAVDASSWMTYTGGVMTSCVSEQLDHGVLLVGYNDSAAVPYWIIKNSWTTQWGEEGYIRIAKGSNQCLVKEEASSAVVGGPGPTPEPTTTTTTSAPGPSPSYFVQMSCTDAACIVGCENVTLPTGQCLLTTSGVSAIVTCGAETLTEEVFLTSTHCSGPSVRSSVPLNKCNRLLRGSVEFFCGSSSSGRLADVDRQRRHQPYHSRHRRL
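Sodium acetate buffer (100 mM, pH 5.5) containing 5 mM DTT and 0.01% Triton X-100 hosted 1.5 nM cruzain and test compound for 15 min at room temperature. Cleavage of 2 uM Z-FR-AMC was then tracked by fluorescence.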
Cruzain inh noDet – inhibitors of Trypanosoma cruzi cruzain without detergent; Potency, µM, inactives show max response, negative = inhibition, hits mostly inhibitors; AID 1476; 200,000 compounds, 2.3% hits; P25779; purified cruzain, Z-FR-AMC fluorescence, no detergent;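 note: plate controls were enzyme without inhibitor for no effect and buffer without enzyme for full effect; nearly all actives have a fitted effect of over 40% in size; top concentration of the series not given in the record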
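Purified cruzain at 1.5 nM, pre-incubated 15 min with compound at room temperature in 100 mM sodium acetate pH 5.5, 5 mM DTT, 0.00005% Triton X-100. Reaction started with 2 uM Z-FR-AMC; AMC fluorescence increase over 60 s gives rate.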
NS1 inh – influenza NS1 inhibition. AID 2326. Potency, µM (series often up to 46.1 µM), without a hit: top-dose activity, positive = more growth. 270,000 compounds, 0.4% hits. S. cerevisiae slowed by influenza A NS1, growth recovery by OD600; active means well fitted rising curve with a large enough effect; inconclusive means small, poorly fitted or top-dose-only effect; inactive means no such curve, though single readings can be large or run the other way; note: nearly all actives have a fitted effect of over 50% in size
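OD600 was taken as the measure of yeast growth restored by compound in an NS1-expressing S. cerevisiae strain. Cells had been washed out of glucose medium and diluted 1:100 into galactose -URA medium, pH 6.0.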
2A StopGo – lowers the luciferase signal of an FMDV 2A StopGo reporter; Potency, µM (titrated, usually from 57.9 µM), for inactives: at the highest dose signal change, negative = less light; 410,000 compounds, 1.2% hits; human cells with a luciferase reporter of 2A StopGo recoding; control for the full effect not named in the record; active = well fitted falling curve with a large enough effect; inconclusive = small, poorly fitted or top-dose-only effect; inactive = no such curve, though single readings can be large or run the other way; tested in HEK293T cells; note: % is set by controls: 0 for no effect and ±100 for the full control effect; nearly all actives have a fitted effect of over 45% in size; luciferase light after 4 h
LASV entry inh – inhibitors of Lassa virus binding or cell entry. Lassa virus pseudotype entry inhibition, cell reporter; control for the full effect not named in the record. Potency, µM (top dose mostly 37.9 µM), without a hit: at the highest dose activity change, negative = inhibition, most hits filed as inhibitors. 300,000 compounds, 1.2% hits; active means well fitted inhibition curve with a large enough effect; inconclusive means small, poorly fitted or top-dose-only effect, or effect the other way; inactive means flat fitted curve, though single readings scatter; tested in HEK293 cells; note: % is set by controls: 0 for no effect and ±100 for the full control effect; nearly all actives have a fitted effect of over 50% in size; luciferase read-out
SARS PLP yeast – SARS-CoV PLP inhibition in yeast. S. cerevisiae expressing SARS-CoV PLpro, growth rescue; control for the full effect not named in the record. Potency, µM (series often up to 32.9 µM), without a hit: top-dose activity, positive = growth rescue. 330,000 compounds, 0.19% hits. AID 485353; active means well fitted rising curve with a large enough effect; inconclusive means small, poorly fitted or top-dose-only effect; inactive means no such curve, though single readings can be large or run the other way; note: 0% is about no effect; nearly all actives have a fitted effect of over 55% in size; growth read by luminescence after 48 h
MARV entry inh – blocks Marburg virus binding to or entry into cells; Marburg virus pseudotyped entry inhibition, cell reporter; control for the full effect not named in the record; about a third of the inactives were read at about 46 µM; Potency, µM (titrated, usually from 37.8 µM), inactives show top-dose activity change, negative = inhibition, actives largely listed as inhibitors; 300,000 compounds, 1.8% hits; active = well fitted inhibition curve with a large enough effect; inconclusive = small, poorly fitted or top-dose-only effect, or effect the other way; inactive = flat fitted curve, though single readings scatter; tested in HEK293 cells; about a fifth of its hits are not listed in these tables; note: % is set by controls: 0 for no effect and ±100 for the full control effect; luciferase read-out
Starred values were filed as active, the others as inactive; ? = inconclusive; · = not tested or not shown; [ ] = dose if it differs, or a comment. Unless noted, calls come from the whole dose curve; as a rule, active = well fitted curve in the direction sought with a large enough effect; inconclusive = small, poorly fitted or top-dose-only effect, or another doubt; inactive = no such curve, though single readings can be large; an effect the other way counts as inactive or inconclusive. Potency is the fitted concentration of half-maximal effect.

SMILES	RE007 growth inh	Cruzain inh Det	Cruzain inh noDet	NS1 inh	2A StopGo	LASV entry inh	SARS PLP yeast	MARV entry inh
Cc1cc(NC(=O)Nc2cccc(C(F)(F)F)c2)no1	10%	0.6%	-4%	-41%	-10%	6%	·	0%
O=C(Nc1cccc(C(F)(F)F)c1)C1CCCCC1	-29%	-9.2%	-6%	4%	-22%	-19%	-12%	-19%
CCCN1CCN(S(=O)(=O)c2cc3c(cc2C)NC(=O)CO3)CC1	-5%	·	·	2%	-16%	·	-2%	·
OCCN1CCN(c2ncnc3sc4c(c23)CCCC4)CC1	-16%	·	·	29%	-8%	·	1%	·
COc1ccc(NS(=O)(=O)c2cccc(C(=O)NNC(=O)CNC(=O)c3cccc(C)c3)c2)cc1	3%	·	·	-5%	18%	·	-1%	·
Cn1c(=O)c2c(nc(N/N=C/c3cccs3)n2C)n(C)c1=O	5%	·	·	3%	-23%	5%[46.1 µM]	0%	?
CCOC(=O)/C(=C\C=C1/Sc2ccccc2N1CC)C(C)=O	-7%	-13%	-5%	4%	5%	2.8µM*	-15%	?
COCCN(C(=O)c1cc2c(s1)CCCCC2)c1c(N)n(Cc2ccccc2)c(=O)[nH]c1=O	-12%	·	·	·	6%	-9%	0%	·
CCOc1ccc(-n2c(-c3ccc(C)cc3)nc3c(cnn3-c3ccccc3)c2=O)cc1	·	-0.2%	9%	·	-7%	9%[46.1 µM]	·	·
C=CCNC(=O)C1CCN(C(=O)c2ccc(-c3ccccc3)cc2)CC1	-4%	·	·	-5%	21%	-20%[46.1 µM]	-2%	-19%[46.1 µM]
CC1CC(C)CN(C(=O)/C(=C\c2ccccc2)c2ccccc2)C1 (stereo not given)	·	-5.5%	-7%	-35%	-18%	18%	-8%	?
CCC(C)(C)NC(=O)CN(Cc1ccc(F)cc1)C(=O)CCC(=O)Nc1ccccn1	-11%	·	·	-15%	-18%	8%	-2%	-22%[46.1 µM]
Cc1cc(C)cc(NC(=O)N2CCC(N3CCCCC3)CC2)c1	·	-0.7%	15%	·	-23%	2%[46.1 µM]	·	29%[46.1 µM]
Cc1nn(CC(=O)N(C)Cc2ccccc2)c(=O)c2cccn12	15%	·	·	-1%	-2%	·	-4%	·
O=[N+]([O-])c1ccc(/C=C/c2nc3ccc([N+](=O)[O-])cc3[nH]2)cc1	2%	-6.8%	-5%	16%	-4%	?	21%	-19%
Cc1ccc(S(=O)(=O)N(C)CC(=O)NCCCn2ccnc2)cc1	-15%	·	·	0%	7%	-5%[46.1 µM]	2%	4%[46.1 µM]
COc1cccc(-c2nnc(NC(C)=O)o2)c1	-7%	·	·	2%	12%	·	0%	·
COc1cc(/C=C/C(=O)Nc2ccccc2C(F)(F)F)cc(OC)c1OC	·	-6.6%	10%	8%	·	·	-6%	·
CC(C)(C)OC(=O)N1CCC[C@H]1C(=O)NCc1ccc(Cl)cc1Cl	-9%	·	·	·	-6%	?	-3%	-22%[46.1 µM]
COc1ccc(CN=C2NC(=O)CC(C(=O)Nc3ccccc3C)S2)cc1 (stereo not given)	38%	0.4%	10%	-4%	-1%	-2%	10%	?
COc1cc(OC)cc(C(=O)N2CCCC(c3nc(-c4ccc(C)o4)no3)C2)c1 (stereo not given)	12%	·	·	-4%	-19%	·	0%	-7%[46.1 µM]
COc1ccc(N2CC(C(=O)OCC(=O)c3ccc(C)cc3)CC2=O)cc1 (stereo not given)	20%	·	·	-6%	-8%	·	0%	·
CSc1cccc(NC(=O)c2nnn(CC(=O)Nc3cc(C)cc(C)c3)c2N)c1	9%	·	·	10%	-2%	·	-1%	·
CCc1ccc(C(C)NC(=O)c2cccs2)cc1 (stereo not given)	48%	·	·	·	-11%	-29%[46.1 µM]	·	-19%[46.1 µM]
COc1ccc(C(=O)C[n+]2cccc3cc(C)ccc32)cc1	-7%	·	·	4%	-9%	?	5%	?
COc1cccc(O[C@@H]2O[C@@H]3COC(C)(C)O[C@H]3[C@H](O)[C@H]2NC(C)=O)c1	-4%	1.6%	-19%	10%	-7%	6%	-13%	5%
Cc1ccc(NC2CCCN(C(=O)c3ccccn3)C2)cc1C (stereo not given)	-1%	·	·	15%	?	·	1%	·
Cc1cccc(NC(=O)CCc2nnc3ccc(NCc4ccco4)nn23)n1	-20%	·	·	-2%	-11%	·	-4%	·
O=C(/C=C/c1ccc(OCCCF)cc1)Nc1ccnc(-c2ccncc2)n1	-1%	·	·	·	22µM*	-10%	1%	?
COCCNC(=O)CN(C(=O)CCC(=O)Nc1nccs1)c1ccc2c(c1)OCO2	9%	·	·	-2%	0%	15%	6%	8%[46.1 µM]
CC(NC(=O)C12CC3CC(C1)CC(n1cncn1)(C3)C2)C12CC3CC(CC(C3)C1)C2 (stereo not given)	14%	3.0%	26%	-5%	0%	-27%	2%	-25%
COCC(C)n1c(SCC(=O)NC(=O)NCc2ccccc2)nc2ccccc2c1=O (stereo not given)	-9%	·	·	·	-14%	?	1%	?
COC(=O)c1cc(OC)c(OC)cc1NC(=O)c1c(-c2ccccc2)noc1C	-1%	-13%	?	-46%	-29%	?	0%	?
CN1C(=O)C(=Cc2ccccc2Oc2ccc(Cl)cc2)C(=O)N(C)C1=O	4%	1.1%	11%	24%	-26%	-27%	19%	-3%
COc1ccc(CC(=O)OC(C)C(=O)Nc2ccc(Cl)cn2)cc1 (stereo not given)	2%	·	·	·	-9%	0%	-13%	11%
CC1=CC(C)(C)NC(=S)N1c1ccc([N+](=O)[O-])cc1	9%	·	·	·	-18%	-27%[46.1 µM]	·	-19%[46.1 µM]
CC1CCCC(C)N1CCCNC(=O)c1cc2c(s1)-c1ccccc1OC2 (stereo not given)	-27%	·	·	1%	-11%	·	15%	·
CC(Sc1ncn[nH]1)C(=O)c1c(N)n(C)c(=O)n(C)c1=O (stereo not given)	-7%	·	·	·	-8%	21%	0%	11%
O=C(NNC(=O)C(c1ccccc1)c1ccccc1)c1cccs1	-2%	-4.7%	2%	5%	5%	-4%	3%	-5%
COCCOC(=O)C1=C(C)N(Cc2ccccc2)C(=O)NC1c1cccc(OC)c1OC (stereo not given)	-19%	-4.7%	28%	-17%	2%	-13%	3%	6%
O=C(CNc1ccccc1)NNC1=NCCC1	-4%	0.8%	1%	-1%	-26%	7%	5%	13%
CN(Cc1ccc([N+](=O)[O-])cc1)c1ccccc1	26%	·	·	·	-24%	-25%[46.1 µM]	·	?
COC(=O)[C@H](Cc1ccccc1)NC(=O)[C@@H]1C[C@H]1[C@@H](NC(=O)OCc1ccccc1)c1ccccc1	-3%	2.6%	3%	13%	-3%	5%	15%	1%
O=C(NCCc1nc2ccccc2[nH]1)C1CCC(=O)N(CCc2cccc(F)c2)C1 (stereo not given)	-10%	·	·	-1%	1%	27%	-2%	30%
CCOC(=O)COn1c(-c2cccc(Cl)c2)nc2ccc([N+](=O)[O-])cc21	0%	-5.3%	7%	-61%	36%[activator]	18%	-9%	2%
Cc1nc2c(C(=O)NCc3ccccc3)c[nH]n2c(=O)c1Cc1ccccc1Cl	·	-1.2%	-7%	·	-8%	5%[46.1 µM]	·	·
COc1ccccc1/C=C/C(=O)NNC(=O)c1cccs1	-3%	·	·	·	51%[activator]	?	1%	-2%[46.1 µM]
CCCc1nc2ccccc2n2c(-c3ccccc3)c3c(=O)n(C)c(=O)n(C)c3c12	·	4.2%	-6%	·	?	-28%[46.1 µM]	·	·
Cc1ccc(N2C(=O)c3cccc([N+](=O)[O-])c3C2=O)cc1C	13%	·	·	-1%	-7%	2%	-1%	-5%[46.1 µM]
COCc1ccc(C(=O)N2CCCC(Nc3ccc(C(C)C)cc3)C2)o1 (stereo not given)	-10%	·	·	-10%	-24%	-2%	7%	-22%
Going on with the list.
SMILES	RE007 growth inh	Cruzain inh Det	Cruzain inh noDet	NS1 inh	2A StopGo	LASV entry inh	SARS PLP yeast	MARV entry inh
O=C1c2ccccc2CN1CCNC(=S)NC1CCCCC1	-14%	·	·	·	70%[activator]	11%	3%	?
Cc1ccc(/C=N/NC(=O)CSc2nc3ccccc3n2C)s1	28%	-0.1%	-4%	-29%	-6%	-28%	1%	-14%
OCCCn1c(-c2ccccc2)n[nH]c1=S	-19%	1.2%	-6%	14%	51%[activator]	-1%	30%	-2%
CN1C(=O)c2ccccc2C(C(=O)O)C1c1cn(C)c2ccccc12 (stereo not given)	8%	2.5%	2%	12%	-1%	7%	9%	?
COC(=O)C1C(c2ccc(Br)cc2)Nc2nnc(C(F)(F)F)n2C1(C)O (stereo not given)	-9%	·	·	0%	-10%	?	-5%	-15%[46.1 µM]
Cc1cc(Nc2ccccc2)c2c([N+](=O)[O-])c(C)cc(C)c2n1	?	-4.1%	-7%	-23%	-20%	-12%	-16%	-15%
COc1ccc(-n2c(C)nc3cc(C(=O)NC4CCCC4)ccc32)cc1	·	0.0%	-8%	·	4%	-12%[46.1 µM]	·	·
CCOC(=O)c1oc2nc3c(cc2c1N)CCCC3	-3%	·	·	-11%	50%[activator]	?	-2%	?
CCNc1nc(NC(C)C)nc(OCC)n1	23%	1.0%	-8%	-20%	-2%	-2%	1%	24%
COc1ccc(OC)c(N2Cc3ccccc3C2=N)c1	-14%	·	·	6%	-27%	17%[46.1 µM]	1%	?
CCOC(=O)c1cnc2c(C(=O)OCC)cnn2c1N	-8%	·	·	0%	49%[activator]	2%	0%	18%
Cc1c(C(c2cc(O)ccc2Cl)c2c(C)n(C)n(-c3ccccc3)c2=O)c(=O)n(-c2ccccc2)n1C	4%	·	·	·	-10%	20%[46.1 µM]	·	-4%[46.1 µM]
CC1(C)Cc2ccccc2C(c2cc3ccccc3oc2=O)=N1	-9%	-5.0%	0%	2%	-16%	-1%	13%	1%
CCOc1ccc(N=CC2=C(O)CC(c3ccco3)CC2=O)cc1 (stereo not given)	-2%	-9.4%	-9%	10%	1%	-5%	-5%	4%
Cc1csc2nc(CN3CCN(CC(=O)N(C)C)CC3)cc(=O)n12	-8%	·	·	-1%	-7%	9%[46.1 µM]	2%	?
O=C(COC(=O)CNC(=O)C1CCCCC1)Nc1ccc(Cl)cc1F	?	·	·	·	15%	·	1%	24%[46.1 µM]
COCCn1c(=S)[nH]c2cc(C(=O)NCCc3ccccc3)ccc2c1=O	-24%	·	·	3%	-4%	8%[46.1 µM]	0%	?
